Source: PubChem (National Center for Advancing Translational Sciences (NCATS))
Anthrax LT inh: qHTS Assay for Anthrax Lethal Toxin Internalization. AID 912, 2007. Cells, anthrax lethal toxin internalization, FRET ratio (460/530). Potency, µM (doses to about 40 µM), without a hit: at the highest dose activity change, negative = inhibition, hits mostly inhibitors. actives 0.67% (n = 70,000); active = well fitted falling ratio curve with the 530 nm signal flat; inconclusive = other ratio curves, or a change in one channel alone; inactive = flat curves in the ratio and both channels; the % refers to the ratio; note: % is set by controls: 0 for no effect and ±100 for the full control effect; nearly all actives have a fitted effect of over 50% in size; tested in ME-180 cells; beta-lactamase reporter
SmPrx2 inh: Schistosoma Mansoni Peroxiredoxins (Prx2); AID 448, 2006; Potency, µM; S. mansoni Prx2 activity coupled to TGR/GSH (TGR is thioredoxin glutathione reductase), NADPH fluorescence loss, qHTS; some inactives read as strong as hits; actives 0.07% (n = 65,000); Schistosoma mansoni peroxiredoxin 2 (Prx2); active means full or partial inhibition curve with a strong effect at the top dose; inconclusive means weaker partial or single-point curve; inactive means no accepted curve; note: series up to 57 µM; many of its hits are not listed in these tables
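Enzyme mix: 100 uM NADPH, 25 nM TGR, 700 uM GSH, 50 nM Prx2 in 100 mM phosphate pH 7.4, 10 mM EDTA, 0.01% Tween-20. 15 min RT with compound; NADPH/GSH added, H2O2 starts reaction; NADPH fluorescence read 8 min.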
Active calls of the source: *; ? = inconclusive; nt = no result given; & = joins results of further samples; [ ] = dose if it differs, or a comment. Potency is the fitted concentration of half-maximal effect. An excerpt; count on the stated rates, not on these rows.

Below each SMILES – Anthrax LT inh | SmPrx2 inh
1. CCCCn1c(O)c(C(C)=NC(Cc2c[nH]c3ccccc23)C(=O)OC)c(=O)[nH]c1=O (centres undefined)
 : 3% | >57
2. N[C@@H](Cc1ccccc1)c1nnc(SCc2ccccc2Cl)o1
 : 1% | >57
3. O=C(OCc1nc2ccccc2c(=O)[nH]1)c1cccs1
 : -4% | >57
4. COc1cc(N[C@@H](C)CCCN)c2ncccc2c1
 : 1%[3.58 µM] | >57
5. Cn1ccnc1P(=S)(c1nccn1C)c1nccn1C
 : 4% | >57
6. CCCC(O)(CCN1CCOCC1)c1ccc(Br)cc1 (centres undefined)
 : -29% | >57
7. COc1cccc(OCc2nnc(SCC(=O)OCc3ccccc3)o2)c1
 : 4% | >57
8. O=C(NC1CCN(Cc2ccccc2)CC1)c1ccc(I)cc1
 : -15% | >57
9. CC1C2CC(CC1(C)C)N(C(=O)Nc1ccc3nccnc3c1)C2 (centres undefined)
 : 25% | >57
10. N#CC1=C(N)SC(N)=C(C#N)C1Cc1ccccc1
 : ? | >57
11. COc1nc(NCc2ccc(Cl)cc2)nc(OC)n1
 : -5% | nt
12. O=c1[nH]c(=O)n(CCC2=CCCCC2)c(O)c1C=NCCN1CCNCC1
 : 18% | >57
13. CC1CCN(S(=O)(=O)c2cn(CC(=O)N3CCN(C)CC3)c(=O)c3ccccc23)CC1
 : 3% | >57
14. c1ccc(CNc2ccc3ccccc3n2)nc1
 : -14% | >57
15. CCNc1nc(N2CCCCC2)nc(-n2nnc(C(=O)OCC)c2C)n1
 : -2% | >57
16. Fc1ccc(-c2nnc3sc(-c4ccc5c(c4)OCO5)nn23)cc1
 : ? | >57
17. Cc1cccc(NC2SC(=O)N(c3ccccc3)C2=O)c1 (centres undefined)
 : -1% | nt
18. CCC1CCCCN1CCCNC(=O)CC1Oc2ccc(C)cc2NC1=O (centres undefined)
 : -7% | >57
19. COC(=O)Cn1c(CCC(=O)O)ccc1-c1ccccc1
 : -6% | >57
20. CSc1nc2ccccc2n1Cc1cccc(F)c1
 : -16% | >57
21. CCOC(=O)c1cccc(NC(=O)CSc2nnc(-c3ccoc3C)n2CC)c1
 : -1% | >57
22. CCN(CC)C(=O)COc1ccc(-c2nnc(N3CCCCC3)c3ccccc23)cc1
 : -19% | >57
23. CC(C)C(OC(=O)c1cccs1)C(=O)NCc1ccco1 (centres undefined)
 : 10% | >57
24. O=C(CN1CCN(c2ccccc2)CC1)Nc1nnc(-c2ccccc2)s1
 : -1% | >57
25. CN(C)CCCNC(=O)Cc1ccc(Br)cc1
 : ? | >57
26. CCC1(C)Cc2c(sc3nc(SCC(=O)O)[nH]c(=O)c23)CO1 (centres undefined)
 : -2% | >57
27. FC(F)(F)COc1nc(OCC(F)(F)F)nc(N2CCN(c3ccccc3)CC2)n1
 : ? | >57
28. Nc1cc(-c2nn[nH]n2)ccc1F
 : -2% | >57
29. Cc1cccc(OCc2nc(C#N)c(NCCN(C)C)o2)c1
 : -11% | >57
30. O=C1CCc2cc(S(=O)(=O)NCCC(=O)N3CCN(c4cccc(Cl)c4)CC3)ccc2N1
 : 18% | >57
31. Cc1ccccc1C
 : -1%&6% | nt
32. CCC(C)(C)NC(=O)C1CCN(c2nc(C)cc(C)n2)CC1
 : 0% | >57
33. CS(=O)(=O)c1nc(-c2cccs2)cc(C(F)(F)F)n1
 : ? | nt
34. COc1ccc(CCNC(=O)c2cc(-c3cc(C)c(C)cc3O)n[nH]2)cc1OC
 : 5% | >57
35. COc1ccc2cc3c(N)c(C(=O)N4CCCC4)sc3nc2c1
 : ? | >57
36. Cc1cccc(-n2c(O)c(C=NCCCN3CCOCC3)c3ccccc3c2=O)c1
 : 18% | >57
37. CCc1nc(C)cn1S(=O)(=O)c1ccc(Cl)c(Cl)c1Cl
 : ? | nt
38. O=C(c1cnn2c(C(F)(F)F)cc(-c3ccccc3)nc12)N1CCOCC1
 : 12% | nt
39. COCc1nnc(NS(=O)(=O)c2ccc(NC(C)=O)cc2)s1
 : ? | >57
40. Cc1ccccc1NC(=O)C1CCCN1S(=O)(=O)c1cccc2cccnc12 (centres undefined)
 : -2% | >57
41. CCn1c(N)c(C(=O)Nc2ccccc2C(=O)OC)sc1=S
 : ? | >57
42. C/C(CCN1CCCCc2nc(C)c(C)cc21)=N\OC[C@@H](C)[C@H](OCc1ccccc1)C(C)C
 : -10%[1.6 µM] | nt
43. C=CCN1C(=O)C(CC(=O)O)SC1=Nc1c(C)n(C)n(-c2ccccc2)c1=O (centres undefined)
 : -13% | >57
44. CCn1c(SCC(=O)Nc2ccccc2N2CCOCC2)nnc1-c1ccccc1
 : 4% | >57
45. Cc1c2cccc(Sc3ccccc3)c2c2c3c(cccc13)[S+](c1ccccc1)C2 (centres undefined)
 : -22%[8 µM] | >57

Record cards (already shown). Order of screens: Anthrax LT inh, SmPrx2 inh
Entry for `CCn1c(N)c(C(=O)Nc2ccccc2C(=O)OC)sc1=S` → ?, >57
Entry for `Cn1ccnc1P(=S)(c1nccn1C)c1nccn1C` → 4%, >57

Carrying on.
nr	compound	Anthrax LT inh	SmPrx2 inh
46	O=c1oc2ccccc2n1CCCCCn1c(=O)oc2ccccc21	-1%	nt
47	O=C(CSc1ccc2nnc(-c3ccc(F)cc3)n2n1)N1CCOCC1	1%	>57
48	Cc1noc(C)c1CSc1nc2ccccc2c(=O)n1-c1ccccc1	-11%	>57
49	COc1cccc(C2NC(=O)NC(C)=C2C(=O)Nc2cc(OC)ccc2OC)c1 (centres undefined)	7%	nt
50	CCOC(=O)c1cc(S(=O)(=O)N2CCN(C(=O)OCC)CC2)cn1C	2%	>57
51	CCN(CC)C(=O)Oc1ccc2c(=O)c(-c3ccc(OC)cc3)c(C)oc2c1	?	>57
52	O=C(Nc1nnc(-c2ccco2)s1)C1CC1	0%	>57
53	Fc1ccc(COc2ccc(/C=N/n3cnnc3)cc2)cc1	?	>57
54	COC(=O)[C@@H]1C[C@H]1[C@@H](NC(=O)OCc1ccccc1)c1ccccc1	9%	>57
55	Cc1ccc(NC(=O)c2nc[nH]c2C(=O)N2CCCCC2)c(C(=O)c2ccccc2)c1	-18%	>57
56	COc1ccc(C2C(C(=O)N3CCOCC3)=C(C)NC3=C2C(=O)CC(C)(C)C3)c(OC)c1 (centres undefined)	15%	>57
57	COc1ccccc1-c1cc(C(=O)N2CCN(c3ccccc3OC)CC2)no1	?	>57
58	Cc1cn2c(-c3ccc(Cl)cc3)nnc2s1	2%	>57
59	CC(C)(C)n1ncc2c(=O)n(CC(=O)NCc3ccccc3Cl)cnc21	4%	>57
60	COc1ccc2c(c1)O[C@H](c1cccc(C(F)(F)F)c1)[C@@H](O)C2=O	-4%[8 µM]	nt
61	CC1(C)CC(=O)c2sc(N3CCCCC3)nc2C1	-22%	>57
62	O=C(NCc1ccco1)c1ccc(Cl)c(S(=O)(=O)N2CCOCC2)c1	7%	>57
63	CCCCOc1cc(=O)[nH]c(=O)[nH]1	-3%	>57
64	CCOC(=O)N1CCN(C(=O)CCS(=O)(=O)c2ccc(Br)s2)CC1	-9%	>57
65	CC(C)(C)c1ccc(O)c(CN2CCN(c3ccccc3)CC2)c1	-12%	>57
66	COCc1nnc(NC(=O)CS(=O)(=O)Cc2ccccc2)s1	3%	>57
67	CC(C)Oc1ccc(C2C(C(=O)c3ccco3)=C(O)C(=O)N2Cc2cccnc2)cc1 (centres undefined)	11%	>57
68	CSc1ccccc1NC(=O)c1ccccc1N(C)S(C)(=O)=O	4%	>57
69	Cn1c(SCC(=O)N2CCc3ccccc32)nc2cccnc21	2%	>57
70	Cc1nc2ccc(C(=O)c3ccccc3)cc2[nH]1	-1%	>57
71	CCOC(=O)c1[nH]c2ccc(C)cc2c1NC(=O)CN1CCCCC1	-15%	>57
72	CC1CCN(C(=O)c2cc(-c3ccccc3O)on2)CC1	-20%	>57
73	COc1ccc(CNc2ncncc2-c2ccccc2OC)c(OC)c1	-1%	>57
74	CCOC(=O)c1ccc(NC(=O)CCc2nc(-c3ccc(Cl)cc3)no2)cc1	4%	>57
75	COc1ccc(CNc2ncnc3ccc(-c4ccccc4OC)cc23)c(OC)c1	?	>57
76	COc1cc(C(O)P(=O)(OC2CCCCC2)c2ccc(N(C)C)cc2)cc(OC)c1OC (centres undefined)	-4%	>57
77	COc1ccc(C(=O)/C=C/N2CCCCC2)cc1OC	-8%	nt
78	C/C=C/Cn1c(Br)nc2c1c(=O)n(C)c(=O)n2C	-4%	>57
79	Cc1cc(C)n(C(=O)CCCCCC(=O)n2nc(C)cc2C)n1	6%	nt
80	COc1ccccc1N1CCN(C(=O)CN(c2ccccc2OC)S(=O)(=O)c2ccccc2)CC1	-24%	>57
81	O=C(O)C1CC=CCC1C(=O)N1CCCC1 (centres undefined)	-1%	>57
82	O=C(Nc1ccccc1)N1CCC2(CC1)CCN(C(=O)c1ccncc1)CC2	3%	>57
83	COc1ccc(C)cc1NC(=O)c1cnc2scc(C)n2c1=O	1%	>57
84	CC(C)C(=O)NC(C)C(c1cccs1)N1CCOCC1 (centres undefined)	6%	>57
85	Cn1c(=O)cc(OCC(=O)N2CCN(C3CCCCC3)CC2)c2ccccc21	-13%	>57
86	Cn1c(=O)c2c(nc(C(=N)SCC(=O)O)n2C)n(C)c1=O	-24%[8 µM]	>57
87	CC(C)(C)NCC(O)COc1ccccc1C(C)(C)C (centres undefined)	3%	>57
88	CCCCCn1c(CCCNC(=O)CC)nc2ccccc21	10%	>57
89	CN(C)c1ncc2nc(-c3ccccc3)c(=O)n(C)c2n1	?	>57
90	Cc1ccccc1-c1nc(CN2CCC(C(=O)NCc3ccco3)CC2)c(C)o1	-13%	>57

Results in sequence from the entries so far:
SmPrx2 inh, nos. 43 to 51 → >57, >57, >57, nt, >57, >57, nt, >57, >57

Remaining list, next part
nr	compound	Anthrax LT inh	SmPrx2 inh
91	CCN1CCCC1CN(Cc1cc2c(C)cc(C)cc2[nH]c1=O)C(=O)NC1CCCCC1 (centres undefined)	2%	>57
92	O=C(c1cc2nc(-c3ccco3)cc(C(F)(F)F)n2n1)N1CCN(c2ccc(F)cc2)CC1	?	nt
93	O=C(CN1CC(=O)Oc2ccccc21)NCc1ccco1	9%	>57
94	c1ccc(C(Cc2nc(-c3ccncc3)no2)c2ccccc2)cc1	?	>57
95	Ic1ccc(N2CCN(Cc3c[nH]c4ncccc34)CC2)cc1	?	>57
96	OC(CN1C2=NCCN2c2ccccc21)c1ccccc1 (centres undefined)	-12%	>57
97	CCCCn1c(SCC(N)=O)nnc1-c1cc(OC)c(OC)c(OC)c1	1%	>57
98	CCn1c(SCC(=O)Nc2nc(C)c(C)s2)nnc1-c1ccco1	-14%	>57
99	CCOC(=O)c1ccccc1NS(=O)(=O)c1ccccc1F	9%	>57
100	CN1C[C@H](C(=O)N[C@]2(C)O[C@]3(O)[C@H]4CCCN4C(=O)[C@H](Cc4ccccc4)N3C2=O)C[C@H]2c3cccc4[nH]cc(c34)C[C@@H]21	-1%[3.58 µM]	>57
101	CCOC(=O)c1cccc(N2C(=O)c3ccccc3S2(=O)=O)c1	-12%	>57
102	CCOC(=O)Nc1cc2c(cc1C(C)=O)OCO2	9%	>57
103	CCN(CC)S(=O)(=O)c1cc(C(=O)OCC(=O)c2ccc3c(c2)NC(=O)CO3)ccc1F	?	>57
104	N#Cc1ccccc1OCCN1C(=O)c2ccccc2C1=O	11%	>57
105	CCCOc1cccc(C2C(C(=O)c3ccco3)=C(O)C(=O)N2CCN(CC)CC)c1 (centres undefined)	3%	>57
106	O=C(CCN1C(=O)c2ccccc2C1=O)Nc1ccc(S(=O)(=O)NC2=NCCCCC2)cc1	-6%	>57
107	Cn1c(=O)cc(N2CCCCC2)[nH]c1=O	7%	>57
108	CCOC(=O)C1=C(N)OC2=C(C(=O)CC(C)(C)C2)C1c1ccccc1OCC#N (centres undefined)	15%	>57
109	CCN(CC)CC(=O)Nc1ccc(C)cc1Br	-15%	>57
110	Cc1cc(=O)n(CC=C(Cl)Cl)c2ccccc12	-10%	>57
111	Cc1csc(NC(=O)C2CCCN(S(=O)(=O)c3ccc(Br)s3)C2)n1 (centres undefined)	?	>57
112	N#Cc1c(-c2cccs2)cc(-c2ccccn2)nc1N	-12%	>57
113	CC(=O)c1cc2c(cc1NC(=O)c1cnc(C)cn1)OCO2	5%	>57
114	CCc1cc(=O)oc2cc(C)cc(O)c12	-3%	>57
115	C/C(N)=C(/C#N)C(=O)CSc1nnc(COc2ccccc2Cl)o1	-5%	>57
116	CCOc1ccc2nc3cc(N=Nc4ccc(N)nc4N)ccc3c(N)c2c1	-7%[8 µM]	>57
117	CC(=O)Oc1ccc2oc(=O)c3c(c2c1)CCCN3C(=O)CN1CCN(c2ncccn2)CC1	-5%	>57
118	COc1ccc(NC(=O)NC(C)c2ccncc2)cc1OC (centres undefined)	nt	>57

Arranged by formula weight (rising): part of the list above.
nr	compound	Anthrax LT inh	SmPrx2 inh
31	Cc1ccccc1C	-1%&6%	nt
10	N#CC1=C(N)SC(N)=C(C#N)C1Cc1ccccc1	?	>57
89	CN(C)c1ncc2nc(-c3ccccc3)c(=O)n(C)c2n1	?	>57
103	CCN(CC)S(=O)(=O)c1cc(C(=O)OCC(=O)c2ccc3c(c2)NC(=O)CO3)ccc1F	?	>57
